# Assay outcomes from PubChem.
# TAR Tat displ – HIV-1 TAR-Tat binding disruption. HIV-1 TAR RNA, Tat peptide displacement FRET; stronger effect = higher value. z-score (concentration not given with the values). 0.6% of 100,000 active. AID 1259389;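 also: score is relative to mean and SD of negative controls; some compounds called inactive have numbers as strong as hits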
# CDC25B-CDK2 inh – human CDC25B-CDK2/CyclinA binding inhibition | z-score (no concentration beside the values) | HTRF CDC25B-CDK2/CyclinA binding, anti-His/anti-Flag; stronger effect = higher value | 0.72% of 94,000 active;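 also: score is relative to mean and SD of negative controls; strong numbers were not always called active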
# Active calls of the source: *; nt = no result given.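 The calls were made as follows: active = z-score from 3 up in half or more of its runs; inactive = the rest.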
# Below each SMILES – TAR Tat displ	CDC25B-CDK2 inh
O=C1CC(c2ccc3c(c2)OCO3)c2scc(-c3ccccc3)c2N1 (configuration not stated)
  1.1	nt
CCSC1=N/C(=C\c2ccc(OC(C)=O)c(Br)c2)C(=O)S1
  -2.9	-0.98
Cn1nc(C(=O)N2CCc3ccccc3C2)c2c1-c1ccccc1OC2
  1.1	-0.97
COC(=O)c1ccc(NC(=O)C23CCC(C)(C(=O)O2)C3(C)C)cc1 (configuration not stated)
  nt	0.13
O=C(C1COc2ccccc2O1)N1CCC(c2nc3ccccc3s2)CC1 (configuration not stated)
  0.06	-1.8
CCc1nnc2sc(-c3ccccc3Cl)nn12
  0.79	-0.44
COc1ccc(-c2ccc(/C=N/NC(=O)CCc3ccc(O)cc3)s2)cc1
  nt	0.94
CCc1nnc2sc(-c3cccs3)nn12
  -0.01	-1.4
COc1ccc(OC)c(-c2nc(C)sc2CC(=O)O)c1
  0.16	-0.23
COc1cc(C)c(S(=O)(=O)N2CCc3cc4cc(C)ccc4nc32)cc1C
  -1.5	-0.52
CCc1nc2nc(CSc3nc4ccc(NC(=O)C5CCCCC5)cc4s3)cc(=O)n2[nH]1
  0.92	nt
CCOC(=O)c1c(C)c(C(=O)NCCCOC)c(C)n1CC
  nt	-1.6
CC1CCCN(c2nnc(NC(=O)Nc3ccc(F)c(Cl)c3)s2)C1 (configuration not stated)
  -0.43	-0.12
Cc1ccc(S(=O)(=O)NC2CCSC2=O)cc1 (configuration not stated)
  -1.1	-1.4
c1ccc(C(c2ccccc2)c2nn3cnnc3s2)cc1
  -0.67	-0.76
O=C(C1COc2ccccc2C1)N1CCN(C2CCCCC2)CC1 (configuration not stated)
  0.97	nt
c1ccc(Cn2cc3c(-c4ccccc4)nnc-3c3cc4c(cc32)OCO4)cc1
  -0.38	-0.52
COc1ccc2c(c1)CCCN2C(=O)NC(=O)c1c(F)cccc1Cl
  nt	-0.15
COc1ccc(OC2CCN(S(=O)(=O)c3ccccc3)CC2)cc1
  -0.7	-0.72
O=C(c1ccc(Cl)c(NC2=NC3CS(=O)(=O)CC3S2)c1)N1CCCC1 (configuration not stated)
  nt	-2
CCC(=O)N1c2ccccc2CC1C(=O)NCc1c(C)nn(C)c1C (configuration not stated)
  0.41	nt
O=C1c2cccnc2C(=O)N1Cc1ccc(S(=O)(=O)N2CCOc3ccccc3C2)cc1
  2.8	nt
COC(=O)c1c[nH]n2c(NC3CCCCC3)c(-c3cccs3)nc12
  nt	-1.2
COc1ccc(Cl)cc1S(=O)(=O)Nc1ncn(Cc2ccc(Cl)cc2)n1
  0.2	-1.6
CCSc1nc2c(c(=O)n1CC1CCCCC1)C1(CCCCC1)Cc1ccccc1-2
  nt	-1.7
Cn1c(-c2cccc(Br)c2)nc2ccccc21
  1.5	-1.8
CNC(=O)Nc1nncnc1C(=O)O
  -0.23	-1.7
Cc1ccc2nc3c(cc2c1)CCN3C(=O)c1ccco1
  -2.1	-1.5
COc1ccc(C2NC(=O)NC(O)(C(F)(F)F)C2C(=O)c2ccccc2)cc1 (configuration not stated)
  nt	-1.2
O=C(CCc1nnc2ccc(N3CCCCC3)nn12)N1CCN(c2ccccc2F)CC1
  0.66	nt
CCOC(=O)c1sc(N2C(=O)C(=O)/C(=C(/O)c3ccccc3)C2c2cccc(Cl)c2)nc1C (configuration not stated)
  1.9	-1.7
O=C(Nc1ccc2oc3ncccc3c(=O)c2c1)c1cc2ccccc2s1
  nt	-1.3
O=C(c1ccncc1)N1CCNc2ccccc2C1
  0.58	-0.26
COc1ccc(C2=NN3C(C2)c2ccccc2OC3c2ccncc2)cc1 (configuration not stated)
  1.5	-0.76
O=C(CSCCS(=O)(=O)c1ccccc1)NNS(=O)(=O)c1ccc(Cl)s1
  nt	-1.3
Cc1cc(NC(=O)CSCC(=O)O)n(C)n1
  nt	-1.8
Cc1ccc2c(c1)NC(SCC(=O)N1CCC(C)CC1)=NS2(=O)=O
  0.67	nt
S=C(c1ccc(Cl)cc1)N1CCCCC1
  nt	-0.49
COc1ccc(-n2nc(C(=O)NC3CCCC3)c3c4ccccc4n(C)c3c2=O)cc1Cl
  nt	-1.8
Cc1ccc(C)n1-c1ccc(Cl)cc1C(=O)O
  14*	-2.1
COc1ccccc1C1C(C#N)=C2N=C(N)c3ccccc3N2C2=C1C(=O)CCC2 (configuration not stated)
  -1	-1.1
Cc1c(Br)c([N+](=O)[O-])nn1CC(=O)NCc1ccco1
  -0.41	-1.8
CCOC(=O)NC(=O)CC#N
  nt	-2.7
CC(C)CCNC(=O)Cn1c(=O)oc2cc(S(=O)(=O)N3CCc4ccccc43)ccc21
  2	-1.1
Cn1c(-c2ccccc2)cnc1NCc1ccc(F)cc1F
  -1.2	1.4
Cc1ccc(Cn2nnc3c(C)nn4c(-c5cccs5)nnc4c32)cc1
  0.31	-1.1
CCOC(=O)C(C)Oc1ccc2c(=O)c(Oc3ccc(OC)cc3)coc2c1 (configuration not stated)
  -0.23	-0.05
CC1(C)Cc2ccccc2C(=NCCCCCC(=O)O)N1
  1.5	-1.5
COc1ccc(COC(=O)C2=C(C)NC3=C(C(=O)CCC3)C2c2ccc(OC(C)=O)c(OC)c2)cc1 (configuration not stated)
  1.3	-1.2
CCCc1cc(=O)[nH]c(-n2nc(C)cc2NC(=O)C2CC(=O)N(c3ccc(F)cc3)C2)n1 (configuration not stated)
  0.32	nt
CC(=O)N1CCc2cc(S(=O)(=O)C(C)CC(=O)NCc3ccco3)ccc21 (configuration not stated)
  1.2	nt
O=S1(=O)C[C@H](NCc2cccnc2)[C@@H](S(=O)(=O)c2cccs2)C1
  -0.82	-0.36
C=C/C(C)=C\CC1[C@](C)(O)CC[C@H]2C(C)(C)CCC[C@]12C (some centres not stated)
  1.9	nt
O=C(CCCN1C(=O)c2cccc3cccc(c23)C1=O)NCc1ccco1
  nt	-3.7
Cc1ccc(C(O)CN2C3=NCCCN3c3ccccc32)cc1 (configuration not stated)
  nt	0.08
CCCN(CCC)S(=O)(=O)c1ccc(C(=O)NCCc2ccc(OC)c(OC)c2)cc1
  nt	-2.6
Cc1ccc(-n2ncc3c2ncn2c(-c4ccncc4)nnc32)cc1
  nt	-0.96
COc1ccc(OC)c(N2CC(=O)N(c3cc(OC)ccc3OC)CC2=O)c1
  -1.1	-1.8
N#Cc1ccccc1NC(=O)CSc1nc(-c2cccs2)cc(C(F)(F)F)c1C#N
  nt	-1.3
O=C(NC1CCCc2ccccc21)c1ccc(CS(=O)c2ccc(Br)cc2)o1 (configuration not stated)
  -0.11	-0.27

# A few values from the entries so far:
# C=C/C(C)=C\CC1[C@](C)(O)CC[C@H]2C(C)(C)CCC[C@]12C (some centres not stated) in TAR Tat displ = 1.9
# O=C1CC(c2ccc3c(c2)OCO3)c2scc(-c3ccccc3)c2N1 (configuration not stated) in TAR Tat displ = 1.1
# Cc1ccc(S(=O)(=O)NC2CCSC2=O)cc1 (configuration not stated) in TAR Tat displ = -1.1

# The results go on.
canonical_smiles,TAR Tat displ,CDC25B-CDK2 inh
O=C(CN1CCN(C2CCCCC2)CC1)c1ccc2cc[nH]c2c1,nt,-0.94
CC(C)Cc1nn2c(=O)cc(CSCC(=O)Nc3ccccc3Cl)nc2s1,0.31,nt
O=C(CSc1nc2ccccc2c(=O)n1-c1ccc2c(c1)OCO2)Nc1ccccc1Cl,nt,-1.8
COC(=O)C(CC(C)C)NC(=O)CSc1nnc2c3ccccc3n(C)c2n1 (configuration not stated),-0.25,-1.3
CN(C)c1ncnc2c1cnn2-c1ccc(F)cc1,0.66,nt
Cc1[nH]c(=O)[nH]c(=O)c1NS(=O)(=O)c1ccccc1,nt,-2.7
CC(C)N1C(=O)C(O)(CC(=O)c2ccco2)c2ccccc21 (configuration not stated),-0.12,-0.17
COc1ccc(OC)c(-c2nc3c(C#N)c[nH]n3c2NC2CCCCC2)c1,-0.27,-2.5
Cn1ncc2c(Nc3ccc(F)cc3)nc(NC3CCCC3)nc21,-0.21,nt
COc1ccc(C2C3CCc4ccccc4C3=NN2C(C)=O)cc1 (configuration not stated),nt,-1.4
Cc1c(N2CCN(S(=O)(=O)c3cccs3)CC2)c(=O)n(C)c(=O)n1-c1ccccc1,1.6,nt
Cc1ccc(N2CC(=O)N(NC(=O)c3sc4nc(C)cc(C)c4c3N)CC2=O)cc1,nt,-0.86
O=C(CN1C(=O)c2cccnc2Sc2ccccc21)Nc1ccc2c(c1)OCCO2,0.53,nt
Cn1nnnc1SCCNCc1c(OCc2ccc(F)cc2)ccc2ccccc12,0.26,0.63
Cc1cc2c(cc1S(=O)(=O)N1CCCC1)OCCN2C,3.2,nt
N#Cc1c2c(c(Nc3cccc(F)c3)n3c1nc1ccccc13)CCC2,nt,-3.4
Cn1c(=O)[nH]c(=O)c2c1nc(N1CCCCCC1)n2Cc1ccc(F)cc1,nt,0.33
O=C(c1ccc2c(=O)n3c(nc2c1)CCCCC3)N1CCCCC1,1.6,-1.3
CCOC(=O)c1sc2nc(C)nc(Oc3ccc(F)cc3)c2c1C,0.68,nt
O=C1COc2cc(-c3c(Nc4ccccc4)c(=O)c3=O)ccc2N1,0.72,nt
O=C(COCc1cc(-c2ccco2)on1)Nc1ccc2c(c1)OCO2,0.41,nt
O=C(c1csc2ccccc12)N1CC=C(c2ccccc2)CC1,nt,-3
O=c1[nH]c2ccccc2c2nc(-c3ccccc3)nn12,nt,-0.2
O=C1Cc2cc(S(=O)(=O)NCc3ccccc3Cl)cc3c2N1CCC3,2.4,nt
CC(Sc1nc2ccccc2[nH]1)c1nc2ccccc2c(=O)[nH]1 (configuration not stated),-2.6,-0.47
c1ccc2cc(-c3cc(-c4nc(-c5ccc6c(c5)OCO6)no4)[nH]n3)ccc2c1,0.14,nt
CC(C)N(Cc1nc(-c2ccccc2)no1)C(=O)c1ccc2c(c1)OCO2,nt,-0.75
Cc1ccc(C)c(Nc2nc3ccccc3c3nnc(C)n23)c1,-0.95,nt
CCOc1ccc(N2C(=O)CC(N3CCN(c4ccc(Cl)cc4)CC3)C2=O)cc1 (configuration not stated),1.2,-0.26
COc1ccc(N2C(=O)CC(Sc3ncn[nH]3)C2=O)cc1 (configuration not stated),3.1,-0.36
Cc1oc2ccc(OCC(=O)O)cc2c1C(=O)OC(C)C,nt,-0.91
O=C(CSc1nc2ccncc2[nH]1)Nc1ccccc1F,0.13,0.19

# An excerpt of these results, with each value named.
SMILES: CC(C)N(Cc1nc(-c2ccccc2)no1)C(=O)c1ccc2c(c1)OCO2
  TAR Tat displ: nt | CDC25B-CDK2 inh: -0.75

SMILES: Cc1ccc(C)c(Nc2nc3ccccc3c3nnc(C)n23)c1
  TAR Tat displ: -0.95 | CDC25B-CDK2 inh: nt

SMILES: CCOc1ccc(N2C(=O)CC(N3CCN(c4ccc(Cl)cc4)CC3)C2=O)cc1 (configuration not stated)
  TAR Tat displ: 1.2 | CDC25B-CDK2 inh: -0.26

SMILES: COc1ccc(N2C(=O)CC(Sc3ncn[nH]3)C2=O)cc1 (configuration not stated)
  TAR Tat displ: 3.1 | CDC25B-CDK2 inh: -0.36

# Going on with the list.
canonical_smiles,TAR Tat displ,CDC25B-CDK2 inh
O=C(Nc1ccc2[nH]c(=O)sc2c1)c1ccco1,0.82,nt
COCCOC(=O)C1=C(C)NC2=C(C(=O)C(C(=O)OC)C(C)C2)C1c1ccccc1Br (configuration not stated),0.04,-1.1
O=C(Cn1nc(-c2ccccc2)c2ccccc2c1=O)NCC1CCCO1 (configuration not stated),nt,1.5
Oc1c(C(c2ccccn2)N2CCCCC2)ccc2cccnc12 (configuration not stated),1.5,nt
CCc1ccc(C2=CC(c3cccc(Br)c3)n3ncnc3N2)cc1 (configuration not stated),0.64,nt
O=C(CN1N=NC2C(=O)N(c3ccc(Cl)cc3)C(=O)C21)Nc1ccc(Cl)cc1 (configuration not stated),0.23,nt
COc1cc(CNCCO)ccc1Oc1nnnn1-c1ccccc1,0.57,nt
COc1ccc(Nc2nc(NCCCO)nc3c2cnn3C)cc1,0.28,nt
OC1(C#CC#CC2(O)CCCCC2)CCCCC1,nt,0.35
Cc1cc(C)n(-c2nc3cc(Cl)ccc3n3c(C)nnc23)n1,-0.15,-2.4
CCCc1cc(=O)n2[nH]c(SCc3ccccc3)nc2n1,-1.4,-0.51
Cn1cnc(S(=O)(=O)N2CC=C(c3ccccc3)CC2)c1,2,nt
CCOC(=O)c1nc(N2CCOCC2)c2c(C)c(C)oc2n1,1.3,-2
CCCn1c(C2CC(=O)N(c3ccc(Cl)cc3)C2)nc2ccccc21 (configuration not stated),2.7,-2.5
O=C(O)C(Sc1nncc2ccccc12)c1ccccc1 (configuration not stated),1.1,0.65
Cc1nc(N(C)C)cc(N2CCN(C(=O)Nc3ccc(Cl)cc3)CC2)n1,-0.06,0.41
CCN1C(=O)N(c2cc(C)cc(C)c2)C2CS(=O)(=O)CC21 (configuration not stated),0.45,nt
O=C(NCc1ccc2c(c1)OCO2)c1sc(=S)n2c1[nH]c(=O)c1ccccc12,8.4*,nt
Cn1c(=O)cc(OCCCC(=O)NCC2COc3ccccc3O2)c2ccccc21 (configuration not stated),nt,0.65
O=C(Nc1ccc(Cl)cc1)c1nc(-n2cnnc2)ccc1Cl,2.2,nt
CC(=O)OC1CCC2(C)C(=CCC3C2CCC2(C)C(C(C)=O)CCC32)C1 (configuration not stated),nt,-0.85
O=c1[nH]c2ccccc2c(=O)n1CCc1nc(-c2cccc(Cl)c2)no1,-1.1,-3
C=CCn1cc(C(=O)NC2CCCC(C)C2C)c(=O)c2cc(S(=O)(=O)N(CC)CC)ccc21 (configuration not stated),0.75,-1.6
O=C(O)COc1ccc2c(c1)C(=O)CC1(CCCCC1)O2,nt,-0.81
COc1ccc2nc(NC(=O)CC3(CC(=O)O)CCCCC3)sc2n1,nt,-1.3

# This is a random part of the collection; overall some 0.9% were active at least once.
